# BmaI1 enzyme: BmaI1 acyl-homoserine lactone synthase inhibition – biochemical, fluorescence intensity, with counterscreen (AID 720554); BmaI1 enzyme assay, fluorescence intensity; stronger effect = higher value; test concentration not given here; a few actives read low; strong numbers were not always called active; inhibition, %; 12,000 compounds, 0.4% hits;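 active means both replicates within 2 robust z-scores of the inhibited control and a quiet counterscreen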;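 further: 0% = uninhibited enzyme and 100% = inhibited control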
# BmaI1 enzyme counterscreen: second read-out of BmaI1 enzyme, no call of its own (marks repeat the call); inhibition, %; measured here: counterscreen; design of the counterscreen not given here;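 first of two replicates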
# Numbers without * were called inactive. These rows are one share of the data, so the mix of outcomes need not match the whole.
structure | BmaI1 enzyme | BmaI1 enzyme counterscreen
N#Cc1ccccc1CSc1ncccc1C(=O)O | 12 | 10
O=S(=O)(c1ccc2nnn(OCc3cccc(F)c3)c2c1)N1CCCCC1 | 10 | 2
CCCCn1c(N)c(N(CCOC)C(=O)CN2CCCCCC2)c(=O)[nH]c1=O | 9 | 9
CCCNC(=O)NNc1cccc(C)c1 | 40 | 4
Cn1nc(C(=O)Nc2cccc3ccccc23)ccc1=O | 4 | 8
CCOc1ccccc1-n1nnnc1SCC(=O)c1ccc(CNC(C)=O)o1 | 11 | -5
COc1cc(OC)c(NC(C)C(=O)N(C)C2CCCCC2)cc1Cl (centres undefined) | 8 | 5
COC(=O)c1ccc(COC(=O)c2cc(C)oc2C)cc1 | 11 | 10
CSCCC(=O)Nc1ccccc1I | 6 | 6
COc1ccc(CN(C(C)=O)c2ccccc2C(=O)O)cc1 | 6 | 4
CCc1ccc2c(CN3CC(C)OC(C)C3)cc(=O)oc2c1 (centres undefined) | 12 | 10
CC(C(=O)NC1CCCc2ccccc21)N1CCN(c2ccc(F)cc2)CC1 (centres undefined) | -5 | -4
O=C(NCC1COc2ccccc2O1)C12CC3CC(CC(O)(C3)C1)C2 (centres undefined) | -4 | -4
c1nc(SCc2ccon2)c2c3c(sc2n1)CCC3 | -2 | -2
CN(CC(=O)Nc1ccc(Cl)cc1)CC(=O)Nc1ccc(C(N)=O)cc1 | 16 | 10
Cc1nn(Cc2ccc(Cl)cc2)c(C)c1S(=O)(=O)N(C)C | -9 | -2
OC1CCC(Nc2ccnc3cc(Cl)ccc23)CC1 (centres undefined) | 14 | 6
CCOc1ccccc1NC(=O)Cc1ccc(OCc2c(C)noc2C)cc1 | 20 | 15
CC(C)(CNc1nnnn1-c1ccccc1)N1CCOCC1 | 9 | -2
O=C(c1cccnc1Cl)N1N=C2/C(=C/c3ccco3)CCCC2C1c1ccco1 (centres undefined) | 14 | 6
CCOc1cccc(/C=N/N2C(C)CCCC2C)c1O (centres undefined) | 52 | 4
Cc1c(C(=O)OCC2=NC3SC4=C(CCCC4)C3C(=O)N2)oc2ccccc12 (centres undefined) | 13 | 4
CCOc1ccccc1C(=O)NC(C(=O)NCc1ccco1)C(C)C (centres undefined) | -2 | 1
O=C(CSc1ncnc2ccccc12)c1ccc[nH]1 | 28 | 8
Cc1sc2ncnc(OCc3ccc(C#N)cc3)c2c1C | 18 | 8

# Brought forward from above: five entries, followed by the next part.
structure | BmaI1 enzyme | BmaI1 enzyme counterscreen
CCOc1cccc(/C=N/N2C(C)CCCC2C)c1O (centres undefined) | 52 | 4
Cc1c(C(=O)OCC2=NC3SC4=C(CCCC4)C3C(=O)N2)oc2ccccc12 (centres undefined) | 13 | 4
CCOc1ccccc1C(=O)NC(C(=O)NCc1ccco1)C(C)C (centres undefined) | -2 | 1
O=C(CSc1ncnc2ccccc12)c1ccc[nH]1 | 28 | 8
Cc1sc2ncnc(OCc3ccc(C#N)cc3)c2c1C | 18 | 8
CCn1c(CSc2nc3ccccc3s2)nnc1SC(C)C(=O)Nc1ccc(N(C)C)cc1 (centres undefined) | 46 | -19
Cc1cc(C(=O)Cn2cnc3ccccc3c2=O)c(C)n1-c1ccccc1 | 17 | 12
Cc1ccc(C)c(C(C)CN)c1 (centres undefined) | 12 | 10
CC(C)CN(C(=O)CN1CCC(C)CC1)c1c(N)n(CC(C)C)c(=O)[nH]c1=O | -4 | 0
O=C(COC(=O)c1ccc(CN2CCCC2=O)cc1)Nc1ccc(F)cc1 | 16 | 12
Cc1nc(-c2cccc(NS(=O)(=O)c3cccs3)c2)cs1 | 4 | 4
CCc1ccc(CN(C)C(=O)c2ccc3c(c2)OCO3)cc1 | -13 | -8
Cc1nc(COC(=O)c2c(C)nn(-c3ccccc3)c2C)cs1 | 14 | 9
CC(C)NC(=S)Nc1ccccn1 | 6 | 12
Cc1csc(=Nc2ccccc2)n1C1CCCC1 | 24 | 24
CSc1ccccc1NC(=O)CN(C)C(=O)c1ccc(S(=O)(=O)N(C)C)cc1 | 8 | 3
COc1cccc(NC(=O)CSc2cccc[n+]2[O-])c1 | 4 | 8
CC(=O)O[C@]1(C(C)=O)CC[C@H]2[C@@H]3C[C@H](C)C4=CC(=O)CC[C@]4(C)[C@H]3CC[C@@]21C | 14 | 18
COc1ccccc1NC(=O)C(C)OC(=O)c1ccc(NS(=O)(=O)c2ccc3[nH]c(=O)[nH]c3c2)cc1 (centres undefined) | 20 | 16
Cc1ccccc1Nc1nc(N)nc(COC(=O)CCN2C(=O)C3CC=CCC3C2=O)n1 (centres undefined) | 8 | 2
Cc1ccc(-c2csc(NC(=O)CSC(C)(C)C)n2)o1 | 19 | 16
O=C(CSc1nncs1)NC1CCCc2ccccc21 (centres undefined) | -2 | 0
CC(=O)Nc1ccc(C(=S)NCC(c2ccco2)N2CCCCC2)cc1 (centres undefined) | 30 | 5
Cc1cc(SCC(N)=O)n2c(nc3ccccc32)c1C#N | 22 | 1
CCOc1ccc(C(=O)C(C)Sc2nnnn2-c2ccc(OC)cc2)cc1 (centres undefined) | 4 | 4
O=C(Cc1c(F)cccc1Cl)OCC(=O)c1ccc2c(c1)OCO2 | 20 | 6
CCOc1ccccc1NC(=O)CSc1nc(O)cc(=O)n1C1CCCC1 | 8 | 6
COc1cccc(-n2c(SC3CCOC3=O)nc3ccccc3c2=O)c1 (centres undefined) | 14 | 14
Cc1cc(C(=O)NC2CCSc3ccccc32)no1 (centres undefined) | 18 | 14
Cc1cc(-c2csc(N)n2)c(C)s1 | 48 | 56
COc1ccc(CCn2c(C)cc(C(=O)COC(=O)c3cccc(-n4cnnn4)c3)c2C)cc1 | 3 | 1
COc1cccc(N(C(=O)c2ccco2)c2nc3ccccc3s2)c1 | 4 | 5
Cc1cc(C)cc(C(=O)OCC(=O)c2cc(C)n(C)c2C)c1 | 6 | 2
C/C(N)=C(/C#N)C(=O)CSc1cc(C)c(C#N)c2nc3ccccc3n12 | 6 | -3
Cc1noc(C)c1COc1cccc(C(=O)N[C@@H](Cc2ccccc2)c2nc3ccccc3[nH]2)c1 | 26 | 0
O=C(OCc1ccccc1)c1cc2ccccc2[nH]1 | 24 | 13
CCOc1ccccc1NC(=O)COC(=O)CCN1C(=O)C2CC=CCC2C1=O (centres undefined) | 4 | 4
CCn1c(SCC(=O)Nc2ccc(S(=O)(=O)N3CCCC3)cc2)nnc1-c1ccccc1 | -4 | 0
CCOc1ccccc1C1C(C#N)=C(SCC(=O)N2CCCC2)NC2=C1C(=O)CCC2 (centres undefined) | -4 | -5
Cc1cc2ncn(CN3CCN(c4ccc(C(F)(F)F)cn4)CC3)c2cc1C | 6 | 4
O=C(O)C[C@H](O)C[C@H](O)/C=C/c1c(C2CC2)nc2ccccc2c1-c1ccc(F)cc1 | 62 | 28
Cc1cc(OC(=O)c2ccccc2)n[nH]1 | 8 | 18
Cc1nn(Cc2ccccc2Cl)c2sc(C(=O)Nc3nccs3)cc12 | 11 | -3
CNCc1c(C)nn(C2CCS(=O)(=O)C2)c1C (centres undefined) | 12 | 5
CN(C)c1ccc(C(=O)OCc2cc(=O)oc3cc(O)ccc23)cc1 | 8 | -2
Cc1cc(C(=O)CSc2nncn2C)c(C)n1CC1COc2ccccc2O1 (centres undefined) | 12 | 6
O=C1CN2Cc3c(ccc(Cl)c3Cl)N=C2N1 | 4 | 2
CC(C)NC(=O)C1CC(=O)N(Cc2ccccc2)C1 (centres undefined) | 13 | 15
O=C1CN(C(=O)c2ccc3c(c2)OCO3)c2ccccc2N1 | 2 | 5
CN(C(=O)COC(=O)c1ccc2c(c1)OCCO2)c1ccccc1 | 15 | 4
CCOC(=O)Nc1ccc2c(CNC3CCCCC3)cc(=O)oc2c1 | 0 | -13
CNCc1cccnc1 | -6 | -12
CCOC(=O)c1c(C)oc2c1c(C=Nc1cccnc1)c(O)c1ccccc12 | 10 | 4
O=C(O)c1cc(=O)c2ccccc2[nH]1 | 6 | -4
O=C(COc1cc(Cl)c(Cl)cc1Cl)NCCN1C(=O)CSC1=O | 12 | 7

# Shown as labelled records: entries from further up.
> O=C(OCc1ccccc1)c1cc2ccccc2[nH]1
  BmaI1 enzyme: 24 | BmaI1 enzyme counterscreen: 13

> CCOc1ccccc1NC(=O)COC(=O)CCN1C(=O)C2CC=CCC2C1=O (centres undefined)
  BmaI1 enzyme: 4 | BmaI1 enzyme counterscreen: 4

> CCn1c(SCC(=O)Nc2ccc(S(=O)(=O)N3CCCC3)cc2)nnc1-c1ccccc1
  BmaI1 enzyme: -4 | BmaI1 enzyme counterscreen: 0

> CCOc1ccccc1C1C(C#N)=C(SCC(=O)N2CCCC2)NC2=C1C(=O)CCC2 (centres undefined)
  BmaI1 enzyme: -4 | BmaI1 enzyme counterscreen: -5

# More records.
# The line under a structure holds: BmaI1 enzyme | BmaI1 enzyme counterscreen
O=C(O)c1nn(CCN2C(=O)c3ccccc3C2=O)c(=O)c2ccccc12
  -6 | -2
Cc1[nH]c(=O)c(C#N)c(C)c1CCC(=O)OCc1ccc(C#N)cc1
  6 | 1
CC1CN(CC(O)COC(c2ccccc2)c2ccccc2)CC(C)O1 (centres undefined)
  -9 | -12
CC[C@H]1OC(=O)[C@H](C)[C@@H](O[C@H]2C[C@@](C)(OC)[C@@H](O)[C@H](C)O2)[C@H](C)[C@@H](O[C@@H]2O[C@H](C)C[C@H](N(C)C)[C@H]2O)[C@](C)(OC)C[C@@H](C)C(=O)[C@H](C)[C@@H](O)[C@]1(C)O
  0 | -2
NNC(=O)COc1cccc(C(F)(F)F)c1
  -142 | -72
CCCn1nc(C(=O)N(C)CCOc2ccccc2)c2ccccc2c1=O
  1 | 2
COc1ccc2c(COC(=O)c3ccc4c(=O)n5c(nc4c3)CCC5)cc(=O)oc2c1
  32 | 2
CCN(Cc1ccccc1)C(=O)CSc1nncn1C
  6 | 6
Cc1cc(C(=O)CSCc2ccc(Cl)c(Cl)c2)c(C)n1Cc1ccco1
  -2 | -5
O=C(COc1c(F)c(F)cc(F)c1F)C12CC3CC(CC(C3)C1)C2
  2 | 4
COC(=O)c1ccc(COc2ccccc2)o1
  10 | 4
Cc1cccc(Nc2ccccc2C(=O)NCc2ccco2)c1C
  19 | 13
CN(C)C(CNC(=O)c1ccc2ncsc2c1)c1cccs1 (centres undefined)
  18 | 13
CCOC(=O)c1c(C)[nH]c(C)c1C(=O)COC(=O)c1ccc(S(=O)(=O)N(CC)CC)cc1
  19 | 16
COc1ccccc1-n1c(SC(C)C(N)=O)nc2ccccc2c1=O (centres undefined)
  2 | 2
N#CCOC(=O)/C=C/c1cn(Cc2ccccc2)nc1-c1cccs1
  8 | 4
COc1cc(OC)cc(C(=O)NC(C)c2ccccc2)c1 (centres undefined)
  14 | 10
COc1cc(-c2cc(C(=O)NCCCO)c3ccccc3n2)cc(OC)c1OC
  -2 | -6
COCCN(Cc1nc2ccccc2c(=O)[nH]1)C(=O)C1CCCN1C(=O)c1cccs1 (centres undefined)
  14 | 1
COc1ccc(Cn2c(O)c(C=Nc3cc(C)on3)c3ccccc3c2=O)cc1
  2 | -4
O=C(CC1SC(=NCc2ccccc2)NC1=O)Nc1ccccc1F (centres undefined)
  13 | 12
O=C(O)CN1C(=O)Cc2ccccc2C1=O
  82 | 51
COCCCn1c(SCc2ccc(C(=O)O)cc2)n[nH]c1=O
  16 | 8
CC1Cc2ccccc2N1C(=O)CSc1cccc[n+]1[O-] (centres undefined)
  12 | 1
Cc1c(N=CN(C)C)c(=O)n(-c2ccccc2)n1C
  12 | -4
CC(C)NCC(=O)Nc1ccc(S(N)(=O)=O)cc1
  4 | 2
Cc1ccc(S(=O)(=O)Nc2cc(C(F)(F)F)ccc2N2CCOCC2)c(C)c1
  12 | 15
O=C1CSc2ccc(C(=O)N3CCN(S(=O)(=O)/C=C/c4ccccc4)CC3)cc2N1
  12 | 6
CN1CCC(N(C)C(C(=O)Nc2ccc(F)cc2)c2ccccc2)CC1 (centres undefined)
  -31 | -6
CCn1c(-c2ccc3c(c2)OCCO3)cnc1SCC(=O)c1cc(C)n(-c2ncn[nH]2)c1C
  32 | 10
Cc1ccc(-n2nc(C)cc2NC(=O)CSc2nnc(C3COc4ccccc4O3)n2C)cc1 (centres undefined)
  2 | 0
CCOC(=O)c1ccc2c(c1)nc(SCC(=O)Nc1ccccc1F)n2CC
  -1 | -9
O=C(N/N=C1\CCCc2ccccc21)c1ccc(O)cc1
  51 | 50
O=C(Cn1cnc2ccc(Cl)cc2c1=O)N(c1ccccc1)C1CCS(=O)(=O)C1 (centres undefined)
  11 | 0
CN(C)S(=O)(=O)c1cccc(C(=O)OCC(=O)c2ccc[nH]2)c1
  33 | -4
O=C(O)CC1=C(c2cccs2)N2CCN=C2S1
  -4 | 0
Cn1c(=NC(=O)C2COc3ccccc3O2)sc2ccccc21 (centres undefined)
  12 | 2
NCc1ccc(-c2ccc(Cl)cc2)o1
  8 | 1
Cc1nn(Cc2ccc(F)cc2)c2sc(C(=O)Nc3ccc(N4CCOCC4)cc3N3CCOCC3)cc12
  56 | -3
Cn1cccc1/C=C/C(=O)Oc1ccc2ccc(=O)oc2c1
  12 | 6
CCOC(=O)c1c(C)[nH]c(C)c1C(=O)CN1C(=O)NC(CC(C)C)C1=O (centres undefined)
  12 | 11
Cc1cccc(C)c1N1C(=O)CN(C(C)C)C1=S
  34 | 12
CC(C)C(C(=O)NCc1ccco1)c1ccc(Cl)cc1 (centres undefined)
  5 | 3
O=C(N/N=C/C=C/c1ccccc1)NC1CCCCC1
  15 | 20
C=CCSc1nnc(NC(=O)CN(C)S(=O)(=O)c2ccc(Cl)cc2)s1
  -2 | -8
CCN(C(=O)Cn1ncc(Cl)c(Cl)c1=O)c1ccccc1
  22 | 9
O=C(O)C1CCN(c2ncnc3sccc23)CC1
  4 | 1
C=CCn1c(SCc2ccccc2C#N)nc2scc(-c3cccs3)c2c1=O
  12 | 3
O=C(O)c1ccsc1
  11 | -3
CC(C)NCc1nnc(-c2ccccc2Cl)o1
  5 | 0
Cn1ccnc1SCC(=O)c1ccc(NS(C)(=O)=O)cc1
  20 | 20
S=C(NCCN1CCOCC1)N1CCC(Cc2ccccc2)CC1
  12 | 6
c1ccc(-c2nnc(Cc3cn4ccsc4n3)o2)cc1
  20 | 27
